# D2 ag – activates the human D2 dopamine receptor; P14416; DiscoveRx PathHunter D2 beta-arrestin, luminescence, 90 min; 100% = 57 uM dopamine signal; activation, % (no concentration beside the values); 360,000 compounds, 0.084% hits; in the data active = activation above about 40%; inconclusive = about 15% to 40%; inactive = below about 15%; note: compound concentration not given in the record; the text of the record calls up to 30% inactive
# Target sequence (P14416 whole entry, looked up): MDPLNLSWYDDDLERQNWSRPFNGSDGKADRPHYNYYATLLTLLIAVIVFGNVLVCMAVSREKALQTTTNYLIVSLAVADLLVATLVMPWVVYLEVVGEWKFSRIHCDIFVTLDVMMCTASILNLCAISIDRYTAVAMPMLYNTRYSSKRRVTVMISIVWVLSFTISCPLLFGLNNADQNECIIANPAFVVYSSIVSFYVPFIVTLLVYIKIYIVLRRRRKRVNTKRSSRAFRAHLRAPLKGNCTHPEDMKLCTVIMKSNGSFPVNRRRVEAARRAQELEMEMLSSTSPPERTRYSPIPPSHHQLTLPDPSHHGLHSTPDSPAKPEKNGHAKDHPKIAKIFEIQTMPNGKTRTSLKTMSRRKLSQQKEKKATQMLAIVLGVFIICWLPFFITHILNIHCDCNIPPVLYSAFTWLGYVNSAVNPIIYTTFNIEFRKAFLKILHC
#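 Agonist mode: compounds alone added to overnight-plated D2 PathHunter cells for 90 min at 37 C, with 57 uM final dopamine (EC100) defining full response. Beta-arrestin recruitment detected by chemiluminescent reagent, read after 1 h at ambient temperature.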
# CtBP-E1A inh – CtBP/E1A binding inhibition | AlphaScreen GST-E1A/His-CtBP binding, 1536-well; hits give low values; control for the full effect not named in the record | activity change, % (test concentration not listed) | 340,000 compounds, 0.49% hits | AID 651724; in the data active means activity change below about -65%; inconclusive means about -30% to -65%; inactive means above about -30%; note: % is set by controls: 0 for no effect and ±100 for the full control effect
#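 GST-E1A and His-tagged CtBP (125 nM each as 5X stock) were preincubated with pin-transferred compound for 2 h at 37 °C in the dark, then glutathione donor and nickel acceptor beads were added for 1 h before AlphaScreen reading.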
# TRPML1 inh – inhibitors of human TRPML1 channel. 390,000 compounds, 0.02% hits. activity change, negative = inhibition, % (no concentration beside the values). TRPML1-inducible cells, Ca2+ dye fluorescence, FDSS; hits give low values; inhibition of EC80 agonist-evoked calcium signal; in the data active means activity change below about -50%; inconclusive means about -30% to -50%; inactive means above about -30%;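 note: stimulus is agonist 54-4 at its EC80 concentration; % is set by controls: 0 for no effect and ±100 for the full control effect; compound concentration not given in the record; the text of the record puts the active cut at -80%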
# Target sequence (Q9GZU1 whole entry, looked up): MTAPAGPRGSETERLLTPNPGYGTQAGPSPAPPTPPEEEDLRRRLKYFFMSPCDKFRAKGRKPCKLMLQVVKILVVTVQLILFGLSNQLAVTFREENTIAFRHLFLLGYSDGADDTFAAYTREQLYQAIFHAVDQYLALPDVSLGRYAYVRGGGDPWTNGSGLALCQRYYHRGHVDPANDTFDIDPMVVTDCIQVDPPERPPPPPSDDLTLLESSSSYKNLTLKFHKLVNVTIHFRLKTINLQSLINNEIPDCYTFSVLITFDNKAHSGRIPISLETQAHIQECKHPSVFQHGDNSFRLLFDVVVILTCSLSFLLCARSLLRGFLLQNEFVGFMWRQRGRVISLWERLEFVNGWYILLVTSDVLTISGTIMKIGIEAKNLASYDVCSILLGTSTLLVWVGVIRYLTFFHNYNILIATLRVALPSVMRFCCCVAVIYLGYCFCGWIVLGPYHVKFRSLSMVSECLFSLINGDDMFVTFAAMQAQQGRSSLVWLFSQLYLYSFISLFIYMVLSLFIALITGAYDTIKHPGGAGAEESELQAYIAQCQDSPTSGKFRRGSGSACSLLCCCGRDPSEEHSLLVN
#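 TRPML1-DL cells, Tet-induced overnight (~16 h, 37 °C) at 1,500 cells/well, were loaded with Ca8 no-wash dye plus quencher for 45-90 min at room temperature. Compounds were pinned during FDSS kinetic reading; agonist 54-4 at EC80 (4 uM final) then added.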
# TRPML1 ag – activates the human TRPML1 channel; TRPML1-expressing cells, Ca2+ dye fluorescence, FDSS; host cell line not named in the record; reference of the full effect not given here; activation, % (concentration not given with the values); 410,000 compounds, 0.12% hits; in the data active = activation above about 50%; inconclusive = about 30% to 50%; inactive = below about 30%; note: 0% is about no effect; the text of the record puts the active cut at 80%
#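 In this qHTS format, compounds were pin-transferred onto Ca8-dye-loaded TRPML1-DL cells induced with Tet overnight, and intracellular Ca2+ fluorescence was recorded kinetically for 110 s after a 10 s baseline. A subsequent 4uM final 54-4 (EC80) addition followed by a second 110 s read served as the antagonist phase.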
# Six1-Eya2 blk – blocks human Six1 binding to Eya2; activity change, % (concentration not given with the values); 360,000 compounds, 0.56% hits; AlphaScreen GST-Six1/His-Eya2 binding, biochemical; hits give low values; control for the full effect not named in the record; in the data active = activity change below about -65%; inconclusive = about -30% to -65%; inactive = above about -30%; note: % is set by controls: 0 for no effect and ±100 for the full control effect
#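 AlphaScreen luminescence read after one hour at 37 °C in darkness. Pin-transferred compounds met GST-Six1 and His-Eya2 protein (5X stock 250 nM/500 nM) plus glutathione donor and Ni-chelate acceptor beads (5X, 50 ug/mL).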
# PINK1 expr mod – modulators of PINK1 expression. PINK1 immunofluorescence, high-content cytometry, 24 h. Potency, µM (doses to about 76.6 µM), inactives show at the highest dose activation (PINK1 increase), usual class: activators. 410,000 compounds, 0.2% hits; active = well fitted activation curve with a large enough effect; inconclusive = small, poorly fitted or top-dose-only effect; inactive = flat fitted curve, though single readings scatter; cell line not stated here;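 note: potency is the fitted concentration of half-maximal effect; % of control where 0% means no effect; nearly all actives have a fitted effect of over 65% in size; a mitochondrial uncoupler was the plate control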
#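 Stable cell line treated 24 h with compounds at 5 concentrations (CCCP controls), then fixed and immunostained for PINK1 plus nuclear and cell stains; PINK1 immunofluorescence quantified by laser-scanning microplate cytometry.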
# * marks the source's active call; other numbers are inactive results; u = inconclusive; x = not tested or not shown; [ ] = another dose, or the depositor's remark.
SMILES,D2 ag,CtBP-E1A inh,TRPML1 inh,TRPML1 ag,Six1-Eya2 blk,PINK1 expr mod
CCC1CCCCN1CCCNC(=O)CSc1nc2nc(C)c(Cc3ccccc3Cl)c(C)n2n1 (stereo not given),-5.0,-2.2,3.2,-0.3,-7.6,-0.5%
CCOC(=O)c1cc(-c2ccc(OC)c(S(=O)(=O)NCc3ccccc3Cl)c2)on1,x,x,14.0,1.4,x,2.9%
CCN(C)c1ccc(/C=N\n2nnnc2N)cc1,0.7,10.4,-6.2,3.8,10.9,-1.9%
COc1cccc(C(C)NC(=O)C2CCCC2)c1 (stereo not given),2.2,x,-12.2,-0.2,14.6,0.2%
Cc1ccc(CN2CCc3[nH]c(=O)[nH]c(=O)c3C2)cc1,-1.2,5.3,-4.3,-0.1,7.2,0.6%
CCOc1ccc(C(=O)NC(=S)Nc2ccccc2N2CCOCC2)cc1Br,-2.1,-17.4,-6.9,1.4,-25.9,-0.8%
CCCc1nnc(NC(=O)CCC(=O)NCc2ccccc2)s1,-3.7,x,13.0,-0.8,4.7,4.6%
CSc1ccc(OC2(C)CCN(Cc3ccc(OC(F)(F)F)cc3)C2)cc1 (stereo not given),2.9,10.5,x,-0.1,0.8,u
Cc1ccc(S(=O)(=O)N2CCCCC2)cc1NC(=O)Cn1ccc(C(F)(F)F)n1,0.1,12.8,-6.6,-1.3,2.8,4.3%
COc1ccc2c(c1OC)C(C1c3c(cc4c(c3OC)OCO4)CCN1C)OC2=O (stereo not given),-2.7,-3.2,4.2,-0.9,0.6,9.6%
CCCCOc1ccc(NC2=NC3(CCCCC3)N=C(N)N2)cc1,-0.5,-16.1,-5.6,0.5,-2.2,24.1%
CCOc1ccccc1N1CCN(CC(=O)NC(=O)NCc2ccco2)CC1,-3.2,0.0,14.7,0.8,-3.2,1.4%
CC(C)CN(C(=O)c1ccc2c(c1)OCCO2)c1c(N)n(Cc2ccccc2)c(=O)[nH]c1=O,-1.9,0.0,0.2,0.0,0.5,4.4%
Cc1ccccc1C(=O)NNC(=O)c1cccc([N+](=O)[O-])c1,2.6,-6.7,40.7,1.1,-1.6,-1.5%
O=C(CCCNC(=O)c1ccc(Cl)cc1)NCc1ccc(F)cc1,-1.6,0.3,4.0,0.0,-4.3,0.1%
CCOc1c(Br)cc(C2C=C(C(=O)O)Nc3ncnn32)cc1OC (stereo not given),x,x,-9.1,-0.3,x,2.8%
Cc1ccc2cc(S(=O)(=O)NCCC(=O)O)ccc2c1,-3.5,-0.9,-7.0,-0.5,4.5,-4.4%[38.3 µM]
CC1CCN(S(=O)(=O)c2ccc(C(=O)Nc3ccccc3-c3nc4ccccc4[nH]3)cc2)CC1,-3.9,6.8,20.8,0.3,7.2,1.5%
CCN(CC(=O)NC(C)(C)C)C(=O)c1ccc2c(c1)S(=O)(=O)c1ccccc1C2=O,-14.7,-11.7,-14.9,1.1,-1.2,-1.0%
COc1cccc2c(=O)c(C(=O)O)c[nH]c12,1.7,56.8,-7.1,0.2,20.4,-2.0%[38.3 µM]
Cc1cc(Cl)ccc1OCC(=O)NCCOC(=O)Nc1sc(=S)n(C)c1C,-3.2,-4.8,28.2,2.1,6.7,3.8%
O=C(Nc1ccccc1)C1CCN(S(=O)(=O)c2ccc3[nH]c4c(c3c2)CCCCC4)CC1,x,x,-15.6,1.5,x,-0.2%
CC1(C)CC(=O)c2c(n(S(=O)(=O)c3ccccc3)c3ccc(NS(=O)(=O)c4ccccc4)cc23)C1,-1.6,-1.6,14.6,2.0,2.7,-2.6%
Cc1cc([N+](=O)[O-])nn1CC(=O)c1ccccc1,-4.0,-1.3,-8.6,-0.5,1.5,1.2%
CCOC(=O)CNc1ncnc2c1nnn2C,x,x,-18.7,-0.3,x,13.4%
# (listing goes on)
SMILES,D2 ag,CtBP-E1A inh,TRPML1 inh,TRPML1 ag,Six1-Eya2 blk,PINK1 expr mod
NC(CS(=O)O)C(=O)O (stereo not given),-2.6,5.4,6.4,-0.3,0.8,1.6%
COCCN(C(=O)c1ccc(N2CCCC2=O)cc1)c1c(N)n(Cc2ccccc2)c(=O)[nH]c1=O,-4.8,-9.4,-8.6,-0.1,3.3,0.8%
Cc1c(OC(C(=O)O)c2ccccc2)ccc2c3c(c(=O)oc12)CCC3 (stereo not given),-23.5,8.7,-14.3,2.6,1.8,-3.1%
COc1ccccc1CNC(=O)c1csc2c1CCCC2,-2.9,0.3,9.9,1.6,-0.1,-2.1%
COc1ccc(C(=O)C2CCCN(C(=O)c3cccs3)C2)cc1F (stereo not given),-0.3,6.5,17.9,2.2,3.7,-0.1%
Cc1ccsc1C1Nc2ccccc2-c2nc3ccccc3n21 (stereo not given),0.3,7.5,-7.4,2.2,-2.2,2.9%
CCOc1ccc2oc(=O)cc(CN3CCN(Cc4ccc(F)cc4)CC3)c2c1,x,x,-3.6,0.5,x,0.1%
CCCc1n[nH]c2c1/C(=N\OCC)CC(C)(C)C2,2.4,-5.2,9.1,0.1,4.6,9.5%
O=C(N/N=C/c1cc([N+](=O)[O-])ccc1O)C1CC1,-7.9,-25.8,14.4,-0.5,-85.3*,1.4%
CN(C)c1ccc(C(CNC(=O)c2ccc(C#N)cc2)c2c[nH]c3ccccc23)cc1 (stereo not given),-5.5,2.1,5.2,0.1,u,-0.9%
O=C(N/N=C/C1C(c2ccccc2)C1(Cl)Cl)c1cccc(Br)c1 (stereo not given),-1.1,3.3,-7.9,0.5,-4.5,-0.3%
CCCc1cc(=O)oc2c(C)c(OCC(=O)c3ccc(N4CCCC4)cc3)ccc12,-0.8,1.0,-0.7,-0.7,3.2,1.8%
CCOC(=O)c1c(C)[nH]c(C)c1C(=O)COC(=O)c1ccc(OC)c(OC)c1,-0.1,-3.6,5.7,1.4,0.6,-0.1%
Cn1c(=O)cc(OCC(=O)N2CCN(c3cccc(C(F)(F)F)c3)CC2)c2ccccc21,-2.2,1.2,6.0,-0.4,1.0,0.4%[38.3 µM]
COCCNC(=O)CN(c1ccc(OC)c(OC)c1)S(=O)(=O)c1ccc(C)cc1,-2.0,3.3,17.3,0.6,1.0,-1.0%
O=C(CCc1nnc(-c2ccc3c(c2)OCO3)o1)NC(c1cccnc1)C(F)(F)F (stereo not given),-0.7,7.4,-12.0,0.1,0.5,-0.5%
O=c1cc(-c2ccccc2Cl)oc2ccc([N+](=O)[O-])c(O)c12,0.5,-26.8,30.4,-0.1,3.7,-1.1%
Cc1cc(/C=C(\C#N)C(=O)NCC2CCCO2)c(C)n1-c1ccc(Cl)cc1 (stereo not given),-1.4,-13.8,-5.9,0.9,-8.9,-6.2%[38.3 µM]
COc1ccc(N2CC(C(=O)Nc3cccc(S(=O)(=O)N4CCCC4)c3)CC2=O)c(OC)c1 (stereo not given),-5.6,-0.1,-6.4,-0.2,-0.1,1.9%
O=C(NCCNC(=O)c1ccccc1Br)c1ccccc1Br,-2.6,x,x,x,7.0,-0.3%
CC1CC(=O)Nc2ccccc2N1S(=O)(=O)c1ccc(C#N)cc1 (stereo not given),-6.3,2.1,-25.9,-0.1,-11.9,0.9%
Cc1ccc(N2CCN(Cc3nnc(-c4ccc5c(c4)OCO5)o3)CC2)c(C)c1,x,x,14.0,-0.1,x,-0.9%
COc1ccccc1N1C(=O)c2ccccc2NC1C(OC)OC (stereo not given),-0.3,-0.3,-2.3,-0.6,5.2,-0.4%[38.3 µM]
COCCNc1nc(Nc2ccc(C)cc2C)c2sc(-c3ccccc3)cc2n1,-1.5,-6.5,x,-0.4,9.0,9.2%
C[C@@H]1CN([C@@H](C)CO)C(=O)CCCn2nncc2CO[C@H]1CN(C)C(=O)CCC(F)(F)F,-1.8,-4.0,-12.0,0.5,-6.6,0.5%
# (further entries)
SMILES,D2 ag,CtBP-E1A inh,TRPML1 inh,TRPML1 ag,Six1-Eya2 blk,PINK1 expr mod
Cc1cccc(S(=O)(=O)c2cn(C)c3cc(N4CCN(c5ccc(F)cc5)CC4)c(F)cc3c2=O)c1,x,x,-13.9,3.1,x,-2.0%
COCCC(=O)N1CCC(Oc2ccc(C(=O)N3CCCCCCC3)cc2)CC1,-7.5,-22.0,13.2,0.5,-11.9,-0.2%
O=C(Cc1ccc([N+](=O)[O-])cc1)Nc1cccnc1,-2.2,4.2,6.8,3.2,9.2,-0.7%
O=C(Nc1nc(N2C(=O)c3ccccc3C2=O)n(-c2ccccc2)n1)c1ccc(Cl)cc1,-5.7,u,13.5,-0.7,0.0,13.1%
Cc1ccc(-c2noc(N=O)c2NO)cc1,10.3,-14.7,-19.2,3.9,-0.7,-0.7%
CC(C)C[C@@H]1CN(CCCC[C@H]2CNC(=O)C(=O)N2CCC2CCCCC2)C(=O)C(=O)N1CC1CCCCC1,x,4.1,x,0.0,-4.9,0.4%
COc1cccc(/C=N/NC(=O)CSc2ccccc2C)c1OC,-0.2,4.0,u,1.1,1.2,1.9%
COc1cccc(NC(=O)CSc2nnc(-c3cc(-c4ccccn4)nc4ccccc34)o2)c1,-2.6,-1.8,-3.6,1.4,-12.7,19.8%
CCN(C[C@H]1N[C@@](CC)(C(=O)OC)[C@H]2C(=O)N(Cc3ccccc3)C(=O)[C@@H]12)C(=O)c1ccc(C)cc1,u,3.8,-0.4,3.3,2.8,-0.9%
COc1ccc(S(=O)(=O)N2CCOCC2)cc1NC(=O)c1ccc(S(=O)(=O)N(C)c2ccccc2OC)cc1,14.1,1.2,19.2,1.9,-3.1,-0.3%
CC1(C)CC(=O)c2cc(-c3nc(-c4ccccc4)cs3)c(=O)[nH]c2C1,x,x,1.5,-0.3,x,-0.8%
NS(=O)(=O)c1ccc(O)c(N2C(=O)c3cccc4c(C(=O)O)ccc(c34)C2=O)c1,-5.0,6.8,11.1,0.2,-5.6,2.4%
COCCNc1nnc(SC(C)C(=O)Nc2ccc(-c3nc4ccc(C)cc4s3)cc2)s1 (stereo not given),3.0,-12.7,-12.7,1.8,-13.8,7.6%
CSCCC(NC(=O)COc1ccccc1)C(=O)OCCOc1ccc(C)cc1 (stereo not given),-5.2,1.1,-14.4,3.4,3.6,-1.0%
COc1ccccc1/C=C/C(=O)N1CCN(S(=O)(=O)c2cccs2)CC1,2.2,-0.2,-6.6,2.1,-0.2,0.1%

# As entered above.
# In TRPML1 ag, `COc1cccc(C(C)NC(=O)C2CCCC2)c1` (stereo not given) shows -0.2
# In TRPML1 ag, `O=C(CCc1nnc(-c2ccc3c(c2)OCO3)o1)NC(c1cccnc1)C(F)(F)F` (stereo not given) shows 0.1

# Record cards (already shown). Order of values: D2 ag, CtBP-E1A inh, TRPML1 inh, TRPML1 ag, Six1-Eya2 blk, PINK1 expr mod
# C[C@@H]1CN([C@@H](C)CO)C(=O)CCCn2nncc2CO[C@H]1CN(C)C(=O)CCC(F)(F)F as listed: -1.8, -4.0, -12.0, 0.5, -6.6, 0.5%
# COc1cccc(C(C)NC(=O)C2CCCC2)c1 (stereo not given) as listed: 2.2, x, -12.2, -0.2, 14.6, 0.2%
# O=c1cc(-c2ccccc2Cl)oc2ccc([N+](=O)[O-])c(O)c12 as listed: 0.5, -26.8, 30.4, -0.1, 3.7, -1.1%

# Screens deposited in PubChem by National Center for Advancing Translational Sciences (NCATS).
